# Compound activity from PubChem.
# Calb biofilm kill: clotrimazole potentiators killing C. albicans biofilm, primary screen, 4-compound mixtures. C. albicans biofilm persisters + clotrimazole, fluorescence viability; primary screen in compound mixtures of four per well. inhibition, % at 7.6 µM. 120,000 compounds, 0.02% hits. AID 1242, 2008;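 active = inhibition above 30.3% in the primary screen of four-compound pools, then above 30% when the compound was retested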;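 note: compounds exposed to preformed 24 h biofilms for 48 h; the number belongs to the whole pool; some results filed as inactive read as strong as hits; inactives centre near 12; 0% = biofilm with clotrimazole alone and 100% = kill control; retested singly at about 60 µM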
#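 Test system: C. albicans CAF4-2 wild-type biofilms; buffer or medium: RPMI/MOPS medium, pH 7.0; schedule: 24 h biofilm formation, then 48 h compound exposure, 37 °C; detection: Alamar Blue fluorescence; measure: percent inhibition of biofilm viability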
# An asterisk follows results filed as active; & = joins results of further samples. An excerpt. The share of hits here may be higher or lower than overall.
SMILES,Calb biofilm kill
Nc1nc(NCC2CCCO2)nc(Nc2cccc(Cl)c2)c1[N+](=O)[O-] (centres undefined),10
O=C(NNC(=S)Nc1cccc(C(F)(F)F)c1)c1ccc(Cl)cc1Cl,19
CCN(CC)c1ccc(/C=N/N2CCN(Cc3ccccc3)CC2)cc1,18
CC(C)N(Cc1ccccc1)C(=O)COC(=O)c1cnccn1,1
Cc1cccc(OCc2nnc(SCC(=O)N3c4ccccc4CCc4ccccc43)o2)c1,12
CC(C(N)=O)N1c2cccc3cccc(c23)S1(=O)=O (centres undefined),13
CCCN1CCc2c(sc(NC(=S)NC(=O)c3ccccc3)c2C#N)C1,16
CN(C)c1ccc(/C=N\NC(=O)CC#N)cc1,10
COC(=O)c1cn(CC(=O)N2C(C)CCCC2C)c2ccccc12 (centres undefined),14
Cc1ccc(-c2csc3ncnc(Oc4cccc5ccc(C)nc45)c23)cc1,11
Cc1onc(-c2c(F)cccc2Cl)c1C(=O)OCc1cnc(Cl)s1,-2
C=CCOc1ccc(/C=N/NC(C)=O)cc1OCC,25
COc1ccc(NCc2nnc(SCCN3CCCCC3)n2-c2ccc(C)cc2)cc1,20
Oc1c(Br)cc(Br)cc1C=Nc1ccc2[nH]ncc2c1,25
CC(C)(C)C1c2[nH]c3ccccc3c2CCN1CCCn1cccn1 (centres undefined),8
CCCOc1ccc(N2C(=O)CC(NCCNc3ccc([N+](=O)[O-])cn3)C2=O)cc1 (centres undefined),26
O=C1CCCC2=C1C(c1ccc(Cl)cc1)N1C(=O)CCSC1=N2 (centres undefined),8
CCCCCCCC(=O)NNC(=O)CC(=O)Nc1ccccc1C(=O)O,0
COC(=O)c1ccc(/C=N/OCC(=O)Nc2cc(F)ccc2F)cc1,-6
O=C(NCc1ccccc1)C1=C[C@@H](c2ccccc2)C[C@@H](OCc2ccc(CO)cc2)O1,10

# The final 7 records of the part before open the next one:
SMILES,Calb biofilm kill
Oc1c(Br)cc(Br)cc1C=Nc1ccc2[nH]ncc2c1,25
CC(C)(C)C1c2[nH]c3ccccc3c2CCN1CCCn1cccn1 (centres undefined),8
CCCOc1ccc(N2C(=O)CC(NCCNc3ccc([N+](=O)[O-])cn3)C2=O)cc1 (centres undefined),26
O=C1CCCC2=C1C(c1ccc(Cl)cc1)N1C(=O)CCSC1=N2 (centres undefined),8
CCCCCCCC(=O)NNC(=O)CC(=O)Nc1ccccc1C(=O)O,0
COC(=O)c1ccc(/C=N/OCC(=O)Nc2cc(F)ccc2F)cc1,-6
O=C(NCc1ccccc1)C1=C[C@@H](c2ccccc2)C[C@@H](OCc2ccc(CO)cc2)O1,10
C=CCSc1ncnc2c1oc1nc3c(cc12)COC(C)(C)C3,20
C=CCNC(=S)NNC(=O)c1ccc(=O)n(Cc2ccccc2)c1,11
N#Cc1ccc(OCc2nnc(SCC(=O)c3ccccc3)n2-c2ccccc2)cc1,12
C=CCNc1nc(-c2ccc([N+](=O)[O-])cc2)cs1,16
CCCCNC(=O)NC(C(=O)OC)C12CC3CC(CC(C3)C1)C2 (centres undefined),10
CCN(CC)c1ccc(C(=S)NC2CCCCC2)cc1,13
CC(C)(C)OC(=O)CNC(=O)c1[nH]cnc1C(=O)N[C@@H](CCCCNC(=O)OC(C)(C)C)C(=O)OC(C)(C)C,10
CN(C)c1ccnc(-n2cccc2/C=N/O)c1C#N,1
CCCN1CCC(NC(=O)Nc2ccc([N+](=O)[O-])cc2)CC1,-8
O=C(CNC(=O)c1ccco1)N/N=C/c1ccc(O)c([N+](=O)[O-])c1,21
O=C(Nc1ccc(Cl)cc1F)C1CC1,14
CC(C)OC(=O)C[N+](C)(C)CCN1C(=O)C2C(c3ccccc3)C=CC(c3ccccc3)C2C1=O (centres undefined),0
Clc1ccc(/C=N/N2CCCCC2)cc1,12
CC(C(=O)NC(C)(C)C)N(C(=O)CS(=O)CC(=O)Nc1ccc(F)cc1)c1ccccc1F (centres undefined),11
CC(=O)Nc1nc(C)c(-c2csc(Nc3ccccn3)n2)s1,20&5
CN(Cc1ncc[nH]1)C(=O)c1cc(COc2c(F)cccc2F)on1,13
CC1(C(=O)N2CC3(CC(c4cccc(NC(=O)COc5ccc(Cl)cc5)c4)=NO3)C[C@@H]2C(N)=O)CC1 (some centres undefined),4
O=c1c2cc(Cl)ccc2nc(-c2ccccc2Cl)n1O,23
O=c1oc2ccccc2c(NCc2ccc(Cl)cc2)c1[N+](=O)[O-],19
N=c1c2ccccc2nnn1-c1ccc(C(F)(F)F)cc1,12

# Rewritten as tab-separated lines: 5 of the compounds above
SMILES	Calb biofilm kill
COc1ccc(NCc2nnc(SCCN3CCCCC3)n2-c2ccc(C)cc2)cc1	20
Oc1c(Br)cc(Br)cc1C=Nc1ccc2[nH]ncc2c1	25
CC(C)(C)C1c2[nH]c3ccccc3c2CCN1CCCn1cccn1 (centres undefined)	8
CCCOc1ccc(N2C(=O)CC(NCCNc3ccc([N+](=O)[O-])cn3)C2=O)cc1 (centres undefined)	26
O=C1CCCC2=C1C(c1ccc(Cl)cc1)N1C(=O)CCSC1=N2 (centres undefined)	8

# The list goes on.
SMILES,Calb biofilm kill
COc1ccc(S(=O)(=O)Nc2c(C)nc3nc[nH]n3c2=O)cc1,6
O=C(O)Cc1ccc2oc(-c3cccnc3)nc2c1,25
CCCc1cc(=O)[nH]c(SCCN2C(=O)c3ccccc3C2=O)n1,5
Cc1sc2nc(SCC(=O)O)[nH]c(=O)c2c1C,9
CCCC[C@@H]1CNC(=O)C(=O)N1CCc1cc(C(F)(F)F)cc(C(F)(F)F)c1,17
C=CCn1c(C)csc1=Nc1ccc(C(C)=O)cc1,1
Cc1nc(CN2CCN(C(=O)CCc3nnc(Cc4c[nH]c5ccccc45)o3)CC2)cs1,14
CCOc1cc(NC(=S)NCCOC)c(OCC)cc1NC(=O)c1cccs1,13
Cc1nn(-c2ccccc2)c2ncc(C(=O)c3cc(Cl)ccc3O)cc12,13
COc1ccc(CNc2c(C(=O)O)cnc3c2cnn3C)cc1,11
CN(C)S(=O)(=O)c1ccc(NC(=O)c2ccncc2)cc1,16
O=C(CSc1ncn[nH]1)N1N=C2/C(=C/c3ccccc3)CCCC2C1c1ccccc1 (centres undefined),4
O=C(Nc1cccc(-c2nnc(-c3ccccc3)o2)c1)C1CCCCC1,14
O=C(NNC1=C(C(=O)C(F)(F)F)CCC1)c1cccc(O)c1,17
COc1ccc(/C=C(\C#N)C(=O)c2c(C)[nH]c3ccccc23)cc1OC,8
Cc1sc(NC(=O)c2cc(-c3ccccc3)nc3ccccc23)c(C(N)=O)c1C,16
Cc1ccc(S(=O)(=O)N(CCC(=O)O)c2ccccc2)cc1,9
COc1ccccc1NC(=O)c1csc2c1CCC(C)C2 (centres undefined),4
Cc1ccc(Nc2nnc(SCc3nc4ccccc4c(=O)[nH]3)s2)cc1,5
Cc1c(NC(=O)COC(=O)c2ccc(Br)o2)c(=O)n(-c2ccccc2)n1C,14
O=C(CCCCC(=O)N1CCOCCOCCOCC1)OCc1ccccc1,14
O=C(NC1c2ccccc2-c2ccccc21)N1CCOCC1,9
CC1CCCN(c2ccc([N+](=O)[O-])s2)C1 (centres undefined),13
Fc1ccc(C2c3[nH]c4ccccc4c3CCN2CCCn2cccn2)cc1 (centres undefined),10
CC1(C)NC(C(=O)O)Cc2c1[nH]c1ccccc21 (centres undefined),-1
CC(C)COc1ccc(C/C(N)=N/n2cnnc2)cc1,10
CC(=O)Nc1c(C)nn(C(C)=O)c1C,8
NNC(=S)NCc1cccnc1,8
COc1ccc(C(=O)NCc2nnc(SCC(=O)N3CCCCC3)o2)cc1,2
CNC(=O)CCc1[nH]c2ccccc2c1Sc1ccccc1,10
COCCCNC(=O)Cn1cc(C(=O)c2cccs2)c2ccccc21,16
Cc1csc(NC(=O)c2ccncc2)n1,14
O=C(NC1CCCC1)C(c1ccc(N2CCOCC2)cc1)N(C(=O)c1ccco1)c1ccccc1F (centres undefined),34
COC(=O)c1cc(COC(=O)c2nc3nc(C)cc(C)n3n2)oc1C,12
COc1ccc(/C=N/Nc2ccc(C(F)(F)F)cc2[N+](=O)[O-])cc1,27
O=C(C1=C[C@H](C2CC2)C[C@H](OCc2ccc(CO)cc2)O1)N1CCN(Cc2ccccc2)CC1,19
CCCNS(=O)(=O)/C=C/c1ccccc1,1
c1ccc(Cn2nnc3c(NCc4ccc5c(c4)OCO5)ncnc32)cc1,10
COc1ccccc1/C=C(/C(=O)OCC(N)=O)c1ccccc1,4
O=C(N/N=C/c1ccc([N+](=O)[O-])cc1)c1cnccn1,18
CC(=O)Nc1ccc(CN2CCN(CC(C)C)C(CCO)C2)cc1 (centres undefined),-10
CC(C)CC(=O)NC(=S)Nc1sc2c(c1C(N)=O)CCC2,-7
CSc1ccc(/C=C/C(=O)NC23CC4CC(CC(C4)C2)C3)cc1,8
CC(C)CC(=O)N1CCN(Cc2cccc([N+](=O)[O-])c2)CC1,17
O=S1(=O)CC(O)C(N=Nc2c(O)n(Cc3ccccc3)c3ccccc23)C1 (centres undefined),19
Fc1ccc(C2CC(c3ccco3)=Nc3ccccc3S2)cc1 (centres undefined),20
Cn1c(=O)c(-c2ccccc2)c(O)c2ccccc21,16
O=C1N(C2CCCC2)C[C@@H]2C[C@@H](c3cccn3-c3nccs3)N3CCC[C@@]123,11
COC(=O)/C(=C/c1cccc([N+](=O)[O-])c1)NC(=O)c1ccc(OC)cc1,5
CCCCC12CN3CCN(CC(C3)/C1=N\NC(=O)c1ccccc1N)C2,11
C=CCNC(=O)c1ccccc1NC(=O)COc1ccc(OC)cc1,15
Cc1ccc(N(Cc2ccc(C(=O)NCCSc3ccccn3)cc2)S(C)(=O)=O)cc1C,16
CCOCc1c(C(=O)OCC(=O)/C(C#N)=C(\C)N)oc2ccccc12,6
O=C(NN1C(=O)c2ccccc2NC1c1ccco1)c1ccc(Br)cc1 (centres undefined),12
Cc1ccc(C(=O)C(C)Sc2nnc(N)s2)cc1 (centres undefined),2
OCCNCc1cc(Br)ccc1OCc1ccc(F)cc1,24
CCC(=O)N1CCC2(CC1)Oc1ccc(F)cc1C(=O)C21CC(c2ccc(Cl)cc2)=NO1 (centres undefined),9
CC(=O)C1=C(C)N(Cc2ccccc2)C(=O)N[C@@H]1c1cccc(C(F)(F)F)c1,7
Cc1c(Cc2ccccc2)sc(/N=C/c2c(O)ccc3ccccc23)c1C(N)=O,21
CC(=O)Oc1ccc(-c2cccc(C(=O)N(C)c3ccc(O)cc3)c2)cc1,9

# Laid out differently: results already given.
SMILES	Calb biofilm kill
Cn1c(=O)c(-c2ccccc2)c(O)c2ccccc21	16
O=C1N(C2CCCC2)C[C@@H]2C[C@@H](c3cccn3-c3nccs3)N3CCC[C@@]123	11
COC(=O)/C(=C/c1cccc([N+](=O)[O-])c1)NC(=O)c1ccc(OC)cc1	5
CCCCC12CN3CCN(CC(C3)/C1=N\NC(=O)c1ccccc1N)C2	11
C=CCNC(=O)c1ccccc1NC(=O)COc1ccc(OC)cc1	15

# The results go on:
SMILES,Calb biofilm kill
CC(=O)c1c(O)cc(O)c(C(C)=O)c1O,24
O=C(CN1CCC(C(=O)c2ccc(F)cc2)CC1)Nc1ccc(F)cc1,-5
Cc1cc(-c2n[nH]c(=S)n2/N=C/c2ccc(C)s2)n[nH]1,8
CC(C)CCN1NC2(CCC(C)CC2)NC1=S (centres undefined),19
Cc1ccc(NC(=O)CNS(=O)(=O)c2ccc(F)cc2)cc1C,2
N=C1/C(=C\c2ccc(-c3ccc(C(=O)O)cc3)o2)C(=O)N=C2SC=C(c3ccccc3)N12,2
COCCn1c(=NC(=O)C(C)(C)C)sc2cc([N+](=O)[O-])ccc21,19
CCCc1n(CC(O)COC2CCCCC2)c2ccccc2[n+]1C (centres undefined),11
CC(C)(C)C(=O)N1CCC(O)(CS(=O)(=O)Cc2ccccc2)CC1,10
CC(/C=N\NC(=O)c1ccc(C)nc1)=C\c1ccccc1,10
O=C(CNC(=S)NC(=O)c1ccc(Cl)cc1)c1ccccc1,-8
Cc1csc(=Nc2ccccc2)n1C,5
Cc1ccc2nc(Cl)c(C3CC(c4cccs4)=NN3C(=O)CCC(=O)O)cc2c1 (centres undefined),-3
O=C(NCCc1ccc(Cl)cc1)c1cnccn1,10
NS(=O)(=O)c1ccc(CNS(=O)(=O)c2cc(C(=O)O)ccc2Cl)cc1,-11
O=c1c(OC2OC(CO)C(O)C(O)C2OC2OC(CO)C(O)C(O)C2O)c(-c2ccc(O)cc2)oc2cc(O)cc(O)c12 (centres undefined),-1
CC(C)(C)n1cnc(C(N)=O)c1N,14
COc1cccc(N2CCN(C(=O)c3ccc(CSc4nc5ccncc5[nH]4)cc3)CC2)c1,9
CC(=O)c1ccc(NC(=S)NCCc2cccc(Cl)c2)cc1,12
COc1ccccc1-c1ccc(SCC(=O)Nc2cc(C)on2)nn1,24
CC(NC(=O)c1cc(F)c(F)cc1Cl)c1ccncc1 (centres undefined),8
CCC(C)NC(=O)c1ccc2c(Cl)c3c(nc2c1)CCC3 (centres undefined),30
O=C(/C(N=Nc1cccc([N+](=O)[O-])c1)=C(/O)c1ccc(Br)cc1)C(F)(F)F,18
CCC(C)C(=O)Nc1nnc(SCC(=O)Nc2ccc(F)cc2)s1 (centres undefined),11
COc1cc(CC(CC(=O)O)CC(C)OCc2ccccc2)cc(OC)c1 (centres undefined),7
COCCCNCCCCOc1ccc(Br)cc1Cl,14
O=C(NCc1ccc(F)cc1)Nc1cccc([N+](=O)[O-])c1,15
O=C1N(Cc2cccnc2)C[C@@H]2C[C@@H](c3cccc(C(F)(F)F)c3)N3CCC[C@@]123,9
